RN4220 kill – S. aureus RN4220 growth inhibition; OD600, 16 h; inhibition, % (no concentration beside the values); actives 0.33% (n = 330,000); AID 1259311;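 active = z-score of -3 or lower and OD600 up to 0.18 on both plates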;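 also: plate controls were untreated cells for no effect and reference antibiotic for full effect; stock transfer was 100 nL into about 80 µL; one replicate is shown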
Autofluor counter – counter-screen for toxin protease inhibitors: compound fluorescence; compound autofluorescence counterscreen, microsphere flow cytometry; hits give high values; fluorescence intensity (no concentration beside the values); actives 3.1% (n = 360,000);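 active = at least 3 SD above the mean of all compounds, about 16000 in these data; inconclusive = too few beads counted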;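 also: 100 nL of 1 mM stock went into each well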
PrP 5UTR inh – inhibition of PrP 5' UTR reporter expression; cell-based PrP 5' UTR mRNA reporter, plate reader; inhibition, % (no concentration beside the values); actives 0.35% (n = 340,000);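 active = every replicate at 50% or more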;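 also: 0 = median of the neutral control wells; tested in H4 reporter cells; numbers are from one replicate; inactives centre near -14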
Mtb hypoxia rep – reduces hypoxia-regulated biosensor signal in M. tuberculosis. AID 1159583. fluorescence inhibition, % (test concentration not listed). M. tuberculosis hypoxia-regulated fluorescent reporter, fluorescence. actives 0.1% (n = 300,000);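 active = 35 to 45% if threefold the growth effect, above 45% if 1.5-fold the growth effect; inactive = the rest, general growth blockers included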;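 also: wells of about 50 µL received 100 nL stock; 0% = vehicle wells and 100% = reference inhibitor wells; whole bacteria with a GFP reporter of the hypoxia response; strong numbers were not always called active; many hits fall short of the cut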
Sa ugtP lethal – growth inhibition of S. aureus ugtP deletion strain; AID 1259309; S. aureus RN4220 ugtP deletion, OD600 growth, 16 h; some inactives read as strong as hits; actives 0.54% (n = 330,000); growth inhibition, % (test concentration not listed);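 active = z-score under -3 and OD600 up to 0.15 on both plates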;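 also: plate controls were untreated wells for no effect and antibiotic for full effect; wells of about 80 µL received 100 nL stock; the first replicate is given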
BJeLR lethal – kills HRASV12-expressing BJeLR cells | BJeLR (HRASV12) viability, CellTiter-Glo ATP luminescence, 48 h; reference of the scale not given here | inhibition, % (test concentration not listed) | actives 0.17% (n = 300,000);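 active = replicate mean above 50%; inconclusive = above 50% but judged a plate artefact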;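 also: 50 nL library stock added to about 25 µL; numbers are from one replicate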
Mtb hypoxia rep growth – recorded beside Mtb hypoxia rep, whose call it bears; growth inhibition, %; measured here: M. tuberculosis growth (absorbance);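 0% = vehicle and 100% = reference antibiotic; read after six days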
* = called active by the depositor; & = joins results of further samples.

What do the screens show for `CCOc1cc(NC(=O)C2CC2)c(OCC)cc1NC(=O)c1ccccc1OCC`?
RN4220 kill: 11; Autofluor counter: 7088; PrP 5UTR inh: -16; Mtb hypoxia rep: 0; Sa ugtP lethal: -13; BJeLR lethal: -18; Mtb hypoxia rep growth: 8

Results for CC(C)(C)c1ccc2c(c1)N(CC(=O)O)C(=O)CO2 ?
RN4220 kill: 3.3; Autofluor counter: 10804; PrP 5UTR inh: -15; Mtb hypoxia rep: 4; Sa ugtP lethal: 1; BJeLR lethal: 16; Mtb hypoxia rep growth: 1

How did NC(=N\N=Cc1ccccc1)/C(N)=N/N=Cc1ccccc1 do in these assays?
RN4220 kill: 0.8; Autofluor counter: 3962; Mtb hypoxia rep: 1; Sa ugtP lethal: -2; Mtb hypoxia rep growth: -6

What do the screens show for `O=c1[nH]c(/C=C\c2ccc(O)c(O)c2)nc(O)c1[N+](=O)[O-]`?
Autofluor counter: 3879; PrP 5UTR inh: 6; BJeLR lethal: -6

What do the screens show for `COc1ccc(-c2ccc3c(c2)C2CC3CCN2Cc2ccc(OC(F)(F)F)cc2)cc1` (stereo unspecified)?
RN4220 kill: -2.8; Autofluor counter: 4001; PrP 5UTR inh: -25; Mtb hypoxia rep: -13; Sa ugtP lethal: 89*; Mtb hypoxia rep growth: -5

What do the screens show for `CCNC(=S)N(CCc1ccc(OC)c(OC)c1)Cc1cc2cc(OC)ccc2[nH]c1=O`?
RN4220 kill: 4.7; Autofluor counter: 4453; PrP 5UTR inh: -95; Mtb hypoxia rep: 0; Sa ugtP lethal: -2; BJeLR lethal: -15; Mtb hypoxia rep growth: 3

Results for COc1ccc(-c2nn(C)c(=O)[nH]2)cc1 ?
RN4220 kill: 1.7; Autofluor counter: 4612; PrP 5UTR inh: -9; Mtb hypoxia rep: 4; Sa ugtP lethal: 9; BJeLR lethal: 0; Mtb hypoxia rep growth: -3

How did CC(C)Nc1nc(NC(C)(C)C)nc(Oc2ccc(=O)n(-c3ccccc3)n2)n1 do in these assays?
RN4220 kill: 2.6; Autofluor counter: 3359; PrP 5UTR inh: -20; Mtb hypoxia rep: -5; Sa ugtP lethal: -6; BJeLR lethal: 4; Mtb hypoxia rep growth: 0

Results for C=CCOC(Cn1ccnc1)c1ccc(Cl)cc1Cl (stereo unspecified) ?
RN4220 kill: 2.0; Autofluor counter: 6112; PrP 5UTR inh: -20; Sa ugtP lethal: 7

What do the screens show for `CC1(C)CC2C3=CCC4[C@@]5(C)CCC(O)[C@](C)(CO)C5CC[C@@]4(C)[C@]3(C)CC3OC1C(O)[C@]32CO` (stereo partly specified)?
RN4220 kill: 3.2; Mtb hypoxia rep: 8; Sa ugtP lethal: 11; Mtb hypoxia rep growth: 10

Molecules from the list above that have four or more nitrogen atoms, in the order listed:
How did NC(=N\N=Cc1ccccc1)/C(N)=N/N=Cc1ccccc1 do in these assays?
RN4220 kill: 0.8; Autofluor counter: 3962; Mtb hypoxia rep: 1; Sa ugtP lethal: -2; Mtb hypoxia rep growth: -6

How did CC(C)Nc1nc(NC(C)(C)C)nc(Oc2ccc(=O)n(-c3ccccc3)n2)n1 do in these assays?
RN4220 kill: 2.6; Autofluor counter: 3359; PrP 5UTR inh: -20; Mtb hypoxia rep: -5; Sa ugtP lethal: -6; BJeLR lethal: 4; Mtb hypoxia rep growth: 0

Random excerpt: two records from the list.
What do the screens show for `CC1(C)CC2C3=CCC4[C@@]5(C)CCC(O)[C@](C)(CO)C5CC[C@@]4(C)[C@]3(C)CC3OC1C(O)[C@]32CO` (stereo partly specified)?
RN4220 kill: 3.2; Mtb hypoxia rep: 8; Sa ugtP lethal: 11; Mtb hypoxia rep growth: 10

Results for CC(C)(C)c1ccc2c(c1)N(CC(=O)O)C(=O)CO2 ?
RN4220 kill: 3.3; Autofluor counter: 10804; PrP 5UTR inh: -15; Mtb hypoxia rep: 4; Sa ugtP lethal: 1; BJeLR lethal: 16; Mtb hypoxia rep growth: 1

Further records follow:
Results for COc1ccc(CN2CCNC(=O)C2CC(=O)N(C)CC2CCOCC2)cc1OC (stereo unspecified) ?
RN4220 kill: 0.5; Autofluor counter: 5117; PrP 5UTR inh: 0; Mtb hypoxia rep: 8; Sa ugtP lethal: 2; BJeLR lethal: 3; Mtb hypoxia rep growth: 7

What do the screens show for `Cc1ccc2c(c1)N(CCC(=O)NC1CC1)C(=O)C(C)O2` (stereo unspecified)?
RN4220 kill: -3.5; Autofluor counter: inconclusive; PrP 5UTR inh: -21; Mtb hypoxia rep: 3; Sa ugtP lethal: -2; BJeLR lethal: -7; Mtb hypoxia rep growth: 1

What do the screens show for `CCOC(=O)C(=NNc1ccc(OC)cc1)N1CCCc2ccccc21`?
RN4220 kill: -1.8; Mtb hypoxia rep: 0; Sa ugtP lethal: 21; Mtb hypoxia rep growth: 4

Results for Cc1ccc(NC(=O)COc2ncnc3sccc23)cc1S(=O)(=O)N(C)C ?
RN4220 kill: 0.5; Autofluor counter: 4809; PrP 5UTR inh: -10; Mtb hypoxia rep: 7; Sa ugtP lethal: 3; BJeLR lethal: -5; Mtb hypoxia rep growth: 7

How did COc1ccc(/C=C/C(=O)OCC(=O)Nc2cc3oc4ccccc4c3cc2OC)cc1 do in these assays?
RN4220 kill: 6.2; Mtb hypoxia rep: 3; Sa ugtP lethal: -12; BJeLR lethal: 3; Mtb hypoxia rep growth: -2

What do the screens show for `Cc1ccc(C(=O)N2N=C(c3ccc(Br)cc3)CC2c2ccccc2O)cc1` (stereo unspecified)?
RN4220 kill: -0.8; Autofluor counter: 3644; PrP 5UTR inh: -14; Mtb hypoxia rep: 15; Sa ugtP lethal: 14; BJeLR lethal: -8; Mtb hypoxia rep growth: 2

What do the screens show for `COC(=O)c1ccc(C23CC4(C2)[C@H](CN(C)[C@@H]4c2ccccc2)C3c2ccc(Cl)nc2)cc1` (stereo partly specified)?
Autofluor counter: 5279; PrP 5UTR inh: -18; BJeLR lethal: 16

Results for CCC1CCCCN1C(=O)c1ccc2nc(Cc3ccc(OC)cc3)oc2c1 (stereo unspecified) ?
RN4220 kill: 3.5; Autofluor counter: 5253; PrP 5UTR inh: -61; Mtb hypoxia rep: 7; Sa ugtP lethal: 3; BJeLR lethal: -5; Mtb hypoxia rep growth: 3

Results for CCC(C(=O)Nc1ccc([N+](=O)[O-])cn1)c1ccccc1 (stereo unspecified) ?
RN4220 kill: 0.9; PrP 5UTR inh: 0; Mtb hypoxia rep: 0; Sa ugtP lethal: 1; BJeLR lethal: 2; Mtb hypoxia rep growth: -4

What do the screens show for `O=C(C(=CO)N=Nc1cccc(C(F)(F)F)c1)c1ccccc1`?
RN4220 kill: -5.4; Mtb hypoxia rep: 2; Sa ugtP lethal: 4; Mtb hypoxia rep growth: 4

What do the screens show for `Cc1ccc(-n2nc(-c3ccco3)cc2C(=O)O)c(C)c1`?
RN4220 kill: 0.9; Autofluor counter: 4279; PrP 5UTR inh: -3; Mtb hypoxia rep: 8; Sa ugtP lethal: 7; BJeLR lethal: -1; Mtb hypoxia rep growth: 7

What do the screens show for `CN(C)c1ccc(NC(=O)c2cccc(N3C(=O)CCC3=O)c2)cc1`?
RN4220 kill: 4.2; Autofluor counter: 8264; PrP 5UTR inh: -43; Mtb hypoxia rep: 10; Sa ugtP lethal: 6; BJeLR lethal: -20; Mtb hypoxia rep growth: 6

How did CN(C)c1nc(Oc2ccc(OCCOc3ccccc3)nn2)nc(N(C)C)n1 do in these assays?
RN4220 kill: 0.4; Autofluor counter: 4036; PrP 5UTR inh: 10; Mtb hypoxia rep: 1; Sa ugtP lethal: 3; Mtb hypoxia rep growth: 2

Results for COc1ccc(CCNC(=O)c2ccc(SC)cc2OC)cc1 ?
RN4220 kill: 2.9; Autofluor counter: 2294; PrP 5UTR inh: -10; Mtb hypoxia rep: -3; Sa ugtP lethal: 0; BJeLR lethal: -4; Mtb hypoxia rep growth: 3

How did Cc1ccc(NC(=O)C(CC(C)C)NC(N)=O)cc1 (stereo unspecified) do in these assays?
RN4220 kill: 5.0; Autofluor counter: 2047; PrP 5UTR inh: 0; Mtb hypoxia rep: 8; Sa ugtP lethal: 6; BJeLR lethal: -5; Mtb hypoxia rep growth: 16

What do the screens show for `N=C1c2ccccc2CN1c1ccc(S(=O)(=O)N2CCCCC2)cc1`?
RN4220 kill: 15; Autofluor counter: 8227; PrP 5UTR inh: -9; Mtb hypoxia rep: 14; Sa ugtP lethal: -70; BJeLR lethal: -1; Mtb hypoxia rep growth: -4

Results for COc1ccc(CN(C)CCc2ccccn2)cc1OC ?
RN4220 kill: -12; Autofluor counter: 3403; PrP 5UTR inh: -3&-19; Mtb hypoxia rep: 6; Sa ugtP lethal: -7; BJeLR lethal: 4; Mtb hypoxia rep growth: 13

How did COc1ccc2c(c1)CC(C)CC2=NNC(=O)c1ccco1 (stereo unspecified) do in these assays?
RN4220 kill: 0.4; Mtb hypoxia rep: 9; Sa ugtP lethal: 1; Mtb hypoxia rep growth: -3

How did CC1(C)C(c2cccs2)=[N+]([O-])C2(CCCCCC2=NNC(N)=S)N1O (stereo unspecified) do in these assays?
RN4220 kill: -13; Mtb hypoxia rep: 13; Sa ugtP lethal: -4; Mtb hypoxia rep growth: 6

Results for O=C(OCc1ccccc1)Oc1cncc(C(=O)O)c1 ?
RN4220 kill: 1.1; Autofluor counter: 16938*; PrP 5UTR inh: 7; Mtb hypoxia rep: 2; Sa ugtP lethal: 5; BJeLR lethal: 1; Mtb hypoxia rep growth: -5

What do the screens show for `CC1O[C@@H](O[C@H](C)CC/C=C/C(=O)O)C(O)C[C@H]1O` (stereo partly specified)?
Autofluor counter: 4059; PrP 5UTR inh: 4; BJeLR lethal: 11

How did COc1ccc(N2CCN(CCCNC(=O)C3CCN(S(=O)(=O)N4CCOCC4)CC3)CC2)cc1 do in these assays?
RN4220 kill: 2.0; Autofluor counter: 4379; PrP 5UTR inh: -35; Mtb hypoxia rep: 15; Sa ugtP lethal: -3; BJeLR lethal: 6; Mtb hypoxia rep growth: 9

What do the screens show for `Nc1nonc1/C(=N/O)N1CCN(CCO)CC1`?
Autofluor counter: 4703; PrP 5UTR inh: -10; BJeLR lethal: 6

What do the screens show for `CCc1nc2sccc2c(=O)n1N`?
RN4220 kill: 1.3; Autofluor counter: 3485; PrP 5UTR inh: -8; Mtb hypoxia rep: -3; Sa ugtP lethal: 1; BJeLR lethal: -5; Mtb hypoxia rep growth: -1

Results for COc1ccc(S(=O)(=O)N2CCOCC2)cc1C(=O)N(C)Cc1ccco1 ?
RN4220 kill: 4.2; Autofluor counter: inconclusive; PrP 5UTR inh: 2; Mtb hypoxia rep: -4; Sa ugtP lethal: 5; Mtb hypoxia rep growth: 3

What do the screens show for `CSc1nsc(SCCN2C(=O)c3ccccc3C2=O)n1`?
RN4220 kill: 2.6; Autofluor counter: 2077; PrP 5UTR inh: -7; Sa ugtP lethal: -2; BJeLR lethal: 0

How did COc1cccc(NC(=O)c2sc(Cl)nc2C)c1 do in these assays?
RN4220 kill: 1.4; Autofluor counter: 4012; PrP 5UTR inh: -21; Mtb hypoxia rep: -6; Sa ugtP lethal: 3; BJeLR lethal: -11; Mtb hypoxia rep growth: 12

How did O=C(CCCCC(=O)NC1CCCC1)NC1CCCC1 do in these assays?
RN4220 kill: -0.6; Autofluor counter: 2449; PrP 5UTR inh: -9; Mtb hypoxia rep: -3; Sa ugtP lethal: 3; BJeLR lethal: 2; Mtb hypoxia rep growth: 0

What do the screens show for `O=C(Nc1ccc(Cl)cc1)N1CCN(c2ccccc2)CC1`?
RN4220 kill: -1.5; Autofluor counter: 2595; PrP 5UTR inh: -23; Sa ugtP lethal: 1; BJeLR lethal: 9

Results for CCCN1CCCC[C@H]1C(=O)Nc1c(C)cccc1C ?
Autofluor counter: 4497; PrP 5UTR inh: -5; BJeLR lethal: 3

What do the screens show for `CCC(Sc1nc(N)c(NC(=O)c2ccc(OC)c(OC)c2)c(=O)[nH]1)C(=O)OC` (stereo unspecified)?
RN4220 kill: 0.9; Autofluor counter: 6584; PrP 5UTR inh: -4; Mtb hypoxia rep: -4; Sa ugtP lethal: -1; BJeLR lethal: -3; Mtb hypoxia rep growth: 2

Results for O=C1CN(C(=O)/C=C/c2ccc(Cl)cc2)c2ccccc2N1 ?
RN4220 kill: 9.8; Autofluor counter: 3282; PrP 5UTR inh: -11; Mtb hypoxia rep: -3; Sa ugtP lethal: -2; BJeLR lethal: -1; Mtb hypoxia rep growth: 5

What do the screens show for `O=C(CNS(=O)(=O)c1c(F)cccc1F)NC1CCCc2ccccc21` (stereo unspecified)?
RN4220 kill: -0.4; Autofluor counter: 3554; PrP 5UTR inh: -7; Mtb hypoxia rep: 9; Sa ugtP lethal: -6; Mtb hypoxia rep growth: 8

Bioassay records: PubChem, several laboratories
